Screening data: PubChem, National Center for Advancing Translational Sciences (NCATS)
Rango dissoc inh – qHTS Assay for Inhibitors of RanGTP induced Rango (Ran-regulated importin-beta cargo) - Importin beta complex dissociation. Snurportin-1 (Homo sapiens) + GTP-binding nuclear protein Ran (Homo sapiens) + Importin …. Biochemical FRET Rango-importin beta, RanGTP-induced dissociation. Potency, µM (series often up to 46.1 µM), for the others: top-dose activity change, negative = inhibition. 340,000 compounds, 0.071% hits; active means falling FRET ratio curve, often poorly fitted, with flat reads before Ran was added; inconclusive means other falling curves, or compound fluorescence or quenching; inactive means flat or rising ratio curve;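 also: potency is read from the fitted curve at half-maximal effect; % of control where 0% means no effect; nearly all actives have a fitted effect of over 45% in size; -100% = wells without RanGTP and RCC1; the record marks most hits as doubtful in a second field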
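Rango (0.1 uM)–importin beta (0.25 uM) complex; RanGTP-RCC1 trigger; 45 min RT; CFP/YFP FRET read.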
Rango complex inh – qHTS Assay for Inhibitors of Rango (Ran-regulated importin-beta cargo) - Importin beta complex formation; Rango CFP/YFP FRET sensor + importin beta, 45 min; Potency, µM (doses to about 92.2 µM), inactives show at the top dose inhibition of complex formation; 340,000 compounds, 0.031% hits; active = rising FRET ratio curve, often small or poorly fitted; inconclusive = mostly compound fluorescence or quenching in the first reads; inactive = flat curves in all reads;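 also: potency is read from the fitted curve at half-maximal effect; 0% = DMSO wells and 100% = buffer wells lacking importin beta; nearly all actives have a fitted effect of over 15% in size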
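FRET biosensor (snurportin 1 IBB flanked by EYFP and cerulean), 50 nM, with compound 5 min, then 0.125 microM importin beta in PBS, 1 mM DTT, 0.02% Tween-20, 0.1% BSA. CFP/YFP ratio read after 45 min at room temperature; pre-read flags interference.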
GLA inh pH 4.5 – qHTS Assay for Inhibitors of Human alpha-Galactosidase at pH 4.5 | Alpha-galactosidase A (Homo sapiens), P06280 | purified enzyme, 4-MU-alpha-Gal fluorescence, pH 4.5 | activity change, negative = inhibition, % at 105 µM | 230,000 tested, under 10 active | AID 1467, 2008; inconclusive = small, poorly fitted or top-dose-only inhibition, or a rising curve; inactive = flat fitted curve, though single readings scatter; no compound was filed as active;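 also: 0% = full activity with enzyme and -100% = basal without enzyme; dose as in the result columns while the protocol names 77 µM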
Target sequence (P06280 whole entry, looked up): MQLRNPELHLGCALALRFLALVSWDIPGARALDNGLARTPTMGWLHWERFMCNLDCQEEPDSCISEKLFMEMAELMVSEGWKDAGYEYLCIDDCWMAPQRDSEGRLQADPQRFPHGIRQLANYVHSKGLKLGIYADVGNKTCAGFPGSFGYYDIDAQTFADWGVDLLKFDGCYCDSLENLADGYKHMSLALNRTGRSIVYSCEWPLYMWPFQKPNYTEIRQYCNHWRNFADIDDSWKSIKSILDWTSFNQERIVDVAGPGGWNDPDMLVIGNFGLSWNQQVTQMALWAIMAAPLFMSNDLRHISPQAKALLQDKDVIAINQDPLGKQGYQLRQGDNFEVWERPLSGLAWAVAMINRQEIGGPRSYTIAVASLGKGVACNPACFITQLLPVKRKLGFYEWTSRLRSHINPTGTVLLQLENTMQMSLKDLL
miR-21 FLuc – qHTS Assay for Modulators of miRNAs and/orActivators of miR-21. Potency, µM (series often up to 38.3 µM), for inactives: at the highest dose reporter change, positive = more light. 340,000 tested, under 10 active. HeLa miR-21 FLuc reporter, luciferase, 48 h; active = well fitted rising curve with a large enough effect; inconclusive = small, poorly fitted or top-dose-only effect; inactive = no such curve, though single readings can be large or run the other way;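 also: % of control where 0% means no effect; miR-21 action dims this reporter so a rising signal means less miR-21 action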
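Compounds were titrated across several concentrations (up to approximately 40 uM) and incubated 48 hours with HeLa miR-21-FLuc reporter cells (miR-21 target sequence downstream of FLuc, endogenous miR-21). Readout was firefly luciferase luminescence after lytic detection reagent.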
Active calls of the source: *; ? = inconclusive; / = no result given. These rows are one share of the data. The share of hits here may be higher or lower than overall.

nr	Structure	Rango dissoc inh	Rango complex inh	GLA inh pH 4.5	miR-21 FLuc
1	O=C(CN1C(=O)NC(Cc2c[nH]c3ccccc23)C1=O)Nc1cccc(S(=O)(=O)N2CCOCC2)c1 (configuration not stated)	11%	-1.2%	1	-9%
2	Cc1cc(C)c(NC(=O)c2ccc(S(=O)(=O)N(C)C)cc2)c(C)n1	-2%	-1.3%	1	-6%
3	CC(=O)C1=C(O)C(=O)N(CCC(=O)O)C1c1ccccc1[N+](=O)[O-] (configuration not stated)	-12%	4.8%	-4	4%
4	Cc1nc(SCC(=O)c2c(C)[nH]c3ccccc23)c2c(=O)n(C)c(=O)n(CC(C)C)c2n1	/	/	5	-2%
5	COC(=O)C(=Cc1ccc(OCc2ccc([N+](=O)[O-])cc2)c(OC)c1)C(=O)OC	3%	-4.7%	-21	-40%
6	O=[N+]([O-])c1cc(-c2n[nH]c(-c3ccccc3)n2)cc([N+](=O)[O-])c1	4%	-4.7%	-5	-10%
7	COc1cccc(OC)c1/C(O)=C(\C#N)c1nc2ccccc2[nH]1	-16%	-2.3%	-1	14%
8	COc1cc(CC(=O)OCC(=O)NC2CCCCC2)cc(OC)c1OC	3%	0.5%	-7	-1%
9	CCOC(=O)NC(=O)CSc1nc2ccc(OCC)cc2[nH]1	-4%	1.0%	1	1%
10	COC(=O)c1ccc(OCC(O)CN2C(=O)NC(C)(C)C2=O)cc1 (configuration not stated)	-6%	-6.6%	-2	-3%
11	O=C(N=Nc1c(O)[nH]c2ccc([N+](=O)[O-])cc12)c1ccccc1Cl	?	?	-7	-8%
12	Cc1nc2ccc(N3C(=O)CCC3=O)cc2[nH]1	2%	-2.1%	-3	-8%
13	CNC(=O)NC(=O)CSc1nc(-c2cccs2)c(C#N)c(=O)[nH]1	-1%	0.9%	4	-9%
14	Cc1ccc(C2c3sc(=O)[nH]c3SC3C(=O)NC(=O)C32)cc1 (configuration not stated)	0%	2.2%	5	-5%
15	O=C(CCCc1ccccc1)Nc1ccc(Br)cc1F	15%	4.5%	/	-55%
16	CCCN1Cc2cccc(C(=O)Nc3ccc(CN4CCCC4)cc3)c2C1=O	-9%	-0.3%	-4	-2%
17	COc1ccccc1Nc1nnc(SCc2cc(=O)n3cc(C)ccc3n2)s1	13%	-0.6%	-3	-11%
18	Cc1ccc(-c2cc(C(=O)N3CCCCCC3)no2)cc1	9%	-2.7%	/	-57%
19	Cc1ccc(OCCCCN2CCCCC2)cc1	-15%	0.0%	/	-4%
20	COc1ccc(/C=N\NC(=O)CNC(=O)C(c2ccccc2)c2ccccc2)cc1[N+](=O)[O-]	-6%	0.6%	-3	-1%
21	N#Cc1cc(N)c(Nc2ccccc2)cc1C#N	-19%	-7.6%	1	6%
22	CCOC(=O)C1=NOC(CNC(=O)c2c(-c3ccccc3Cl)noc2C)C1 (configuration not stated)	1%	-1.2%	-6	-6%
23	CN(c1ccccc1)S(=O)(=O)c1ccc(C(=O)Nc2ncccc2O)cc1	-10%	0.6%	/	/
24	Cc1nnc(NC(=O)CCn2c(=O)oc3ccccc32)s1	-22%	0.3%	/	11%
25	Cc1ccc(S(=O)(=O)Oc2ccc(/C=C(/NC(=O)c3ccccc3)C(=O)Nc3ccccc3)cc2)cc1	15%	-1.4%	2	-4%
26	O=C(O)c1ccc(NS(=O)(=O)c2cc(Cl)sc2Cl)cc1	0%	-2.6%	/	0%
27	Cc1[nH]c2ccccc2c1C(=O)CSc1nncn1C	-3%	2.5%	2	-10%
28	COc1ccc(C(=O)CSc2nnc(CNC(=O)c3ccccc3F)n2C)cc1OC	44%	3.9%	/	-3%
29	Cc1cccc(CN2C(=O)N/C(=C/c3cc(C)n(-c4cc(C)ccn4)c3C)C2=O)c1	13µM*	?	-11	-3%
30	CCCC(=O)Nc1ccc2oc(=O)ccc2c1	2%	-0.1%	4	4%

Sorted by formula weight (descending): 6 of the compounds above
nr	Structure	Rango dissoc inh	Rango complex inh	GLA inh pH 4.5	miR-21 FLuc
5	COC(=O)C(=Cc1ccc(OCc2ccc([N+](=O)[O-])cc2)c(OC)c1)C(=O)OC	3%	-4.7%	-21	-40%
22	CCOC(=O)C1=NOC(CNC(=O)c2c(-c3ccccc3Cl)noc2C)C1 (configuration not stated)	1%	-1.2%	-6	-6%
23	CN(c1ccccc1)S(=O)(=O)c1ccc(C(=O)Nc2ncccc2O)cc1	-10%	0.6%	/	/
2	Cc1cc(C)c(NC(=O)c2ccc(S(=O)(=O)N(C)C)cc2)c(C)n1	-2%	-1.3%	1	-6%
15	O=C(CCCc1ccccc1)Nc1ccc(Br)cc1F	15%	4.5%	/	-55%
6	O=[N+]([O-])c1cc(-c2n[nH]c(-c3ccccc3)n2)cc([N+](=O)[O-])c1	4%	-4.7%	-5	-10%

Additional structures.
nr	Structure	Rango dissoc inh	Rango complex inh	GLA inh pH 4.5	miR-21 FLuc
31	CCCOc1ccc(C2C(C(=O)c3cc4ccccc4o3)=C(O)C(=O)N2c2cc(C)on2)cc1 (configuration not stated)	?	?	/	-9%
32	O=C(Nc1nc(-c2ccccc2)cs1)c1ccc(N2CCOCC2)c([N+](=O)[O-])c1	13%	2.6%	-15	?
33	O=C(O)c1ccc(/C=N/O)cc1	-4%	5.5%	-2	2%
34	O=C(CSc1nnc(CNc2ccc(Cl)cc2)o1)Nc1nc2ccccc2s1	0%	?	2	2%
35	O=C(Nc1ccccc1N1CCOCC1)c1ccc(Br)o1	2%	2.9%	2	-10%
36	COc1ccc(C(=O)c2cnc[nH]2)cc1	7%	-3.5%	-7	4%
37	C(=N\NCc1ccccc1)/c1ccc2nccnc2c1	-18%	1.2%	-8	-24%
38	O=C(NNS(=O)(=O)c1ccccc1[N+](=O)[O-])c1cccc(Br)c1	-7%	-3.4%	/	0%
39	COc1cc(NC(=O)COC(=O)C=C(C)C)c(C)cc1[N+](=O)[O-]	4%	7.1%	-9	-2%
40	COc1ccc(C(=O)Nc2nnc(CCS(=O)(=O)c3ccc(C)cc3)s2)cc1	-19%	-1.8%	-11	-16%
41	Cc1cccn2c(=O)c3cc(C#N)c(=O)n(Cc4cccnc4)c3nc12	?	?	?	0%
42	CCN(CC)C(=O)[C@H]1CC(CC(=O)NCCCN(C)C)C(=O)N2CCc3c([nH]c4ccccc34)[C@]12C (some centres not stated)	-10%	-2.4%	/	/
43	CCCCC(C(=O)O)C(C)CC(=O)Nc1cccc(C(=O)O)c1 (configuration not stated)	14%	0.1%	4	-1%
44	CC(=O)N1CCOCCOCCN(C(C)=O)CCOCC1	4%	-1.9%	3	-1%
45	COc1ccccc1CN(C(=O)CCl)C(C(=O)NC1CCCCC1)c1ccncc1 (configuration not stated)	-27%	?	0	-5%
46	COc1ccc(CCNC(=O)C2CCN(S(=O)(=O)N3CCOCC3)CC2)cc1OC	-2%	-0.8%	3	-3%
47	CCOC(=O)C1CCN(C(=O)CCc2c(C)nc3cc(-c4ccc(OC)cc4OC)nn3c2C)CC1	-4%	2.1%	1	1%
48	OCCN(CCO)CC(O)COc1ccc(C23CC4CC(CC(C4)C2)C3)cc1 (configuration not stated)	57%	-3.8%	-4	18%
49	NS(=O)(=O)c1ccc2c(c1)oc(=O)c1cc(S(N)(=O)=O)ccc12	-7%	-2.8%	-4	2%
50	CCCn1c(N)c(C(=O)CN(C)CC(=O)Nc2cc(C)ccc2C)c(=O)[nH]c1=O	-13%	?	/	/
51	Cc1cc(C(=O)NC(C)C2CCCO2)c(C)o1 (configuration not stated)	-11%	0.3%	/	-2%
52	Clc1cccc(Oc2cnc3ccccc3n2)c1	1%	3.7%	-18	-21%
53	CC(C)Cc1cc(C(=O)N2CCC(N3CCC(C(=O)NC4CC4)CC3)CC2)n[nH]1	6%	-3.5%	5	-26%
54	O=C(O)/C=C/c1ccccc1[N+](=O)[O-]	?	-1.3%	3	-2%
55	COc1cccc(CN2C(=O)CCC2(C)C(=O)NC2CCCCCC2)c1 (configuration not stated)	1%	-0.4%	9	-1%
56	CCOc1ccc2nc(NC(=O)C3CCN(C(=O)c4ccco4)CC3)sc2c1	-8%	-0.7%	/	-33%
57	CCN1C(=O)[C@@H]2[C@H](C1=O)[C@@H]1C(=O)Nc3ccccc3C(=O)N1[C@@H]2c1ccccc1	-4%	2.2%	/	/
58	COc1ccc(Br)cc1/C=C/C(=O)Nc1ccc2ccccc2c1	-9%	-2.0%	-6	-5%
59	CCCN(CC(=O)Nc1ccccc1C)C(=O)c1cn2ccccc2n1	-18%	-3.0%	/	/
60	CC(C)(C)NS(=O)(=O)c1ccc(NS(=O)(=O)c2ccc(F)cc2)cc1	3%	3.1%	0	-3%
61	COC(=O)c1ccc(COc2ccc(/C=N/NC(=O)C(=O)Nc3ccc(OC)cc3)cc2OC)o1	-14%	-0.8%	1	-5%
62	CCOC(=O)c1ccc(NC(=O)CSc2nnc(CNc3ccc(C)cc3)n2C)cc1	3%	0.8%	3	-8%
63	O=C(O)c1ccc2c(=O)n3c(nc2c1)/C(=C/c1cccc(Cl)c1Cl)CC3	2%	-4.1%	/	-10%
64	CCn1nc(C)c(CNC(=O)CCc2nnc(Cc3c[nH]c4ccccc34)o2)c1C	8%	0.1%	5	-2%
65	O=C(NCCN1CCOCC1)c1cc2cc(Br)ccc2oc1=O	-4%	-2.8%	-7	1%
66	O=C(C[n+]1ccccc1)N/N=C/c1ccc(Br)cc1	-5%	-6.0%	/	/
67	CCn1cc(CN2CCCC(C(=O)c3ccc(-c4ccccc4)cc3)C2)cn1 (configuration not stated)	0%	0.7%	3	17%
68	Cc1ccc([N+](=O)[O-])cc1S(=O)(=O)Nc1cccc(-c2ccc(N3CCCC3)nn2)c1	34%	5.0%	/	/
69	CC(C)(C)c1ccc(OCCC(=O)OCC(=O)NC2CC2)cc1	13%	3.2%	/	/
70	COc1ccc(C(=O)N[C@H](C(=O)NCCc2ccc3c(c2)OCCO3)C(C)C)cc1	6%	?	/	/
71	COc1ccc(/C=C2\N=C(SC)NC2=O)cc1	-34%	?	0	-10%
72	O=C(c1ccc(N2CCOCC2)c([N+](=O)[O-])c1)N1CCCC(C(F)(F)F)C1 (configuration not stated)	-11%	-2.4%	/	/
73	Cc1cccc(NC(=O)NCCN2CCCCC2)c1	-10%	-0.4%	/	-5%
74	COc1nnc(-c2ccc(C)c(S(=O)(=O)NCCO)c2)c2ccccc12	-11%	4.9%	-7	-11%
75	CC(C)(C)C(=O)NC1CC2CCCC(C1)N2C(=O)Nc1ccccc1Cl (configuration not stated)	5%	0.0%	/	0%
76	CC1CCN(C(=O)CSc2ccc(-c3cccc([N+](=O)[O-])c3)nn2)CC1	-18%	-0.4%	-7	4%
77	Cc1cc([N+](=O)[O-])ccc1NCc1ccccc1	-17%	-0.3%	-4	6%
78	CC(C)(C)n1nnnc1C(c1cccs1)N1CCN(c2ccccc2)CC1 (configuration not stated)	-1%	-0.1%	2	-1%
79	Cc1cccc(-c2nc3c(s2)CCc2onc(-c4ccc(Br)cc4)c2-3)c1	-7%	1.4%	/	-7%
80	O=c1[nH][nH]c(=O)c2c1[nH]c(=S)n2Cc1ccccc1	0%	3.9%	/	/

One compound at a time, from the list above.
Listed for O=C(N=Nc1c(O)[nH]c2ccc([N+](=O)[O-])cc12)c1ccccc1Cl → Rango dissoc inh: ?; Rango complex inh: ?; GLA inh pH 4.5: -7; miR-21 FLuc: -8%
Listed for CCCCC(C(=O)O)C(C)CC(=O)Nc1cccc(C(=O)O)c1 (configuration not stated) → Rango dissoc inh: 14%; Rango complex inh: 0.1%; GLA inh pH 4.5: 4; miR-21 FLuc: -1%
